Screening data from PubChem BioAssay.
Vaccinia inh = blocks a specific stage of Vaccinia orthopoxvirus infection, primary screen, cell-based, single point; 0.01% of 89,000 active; Vaccinia-infected cells, mCherry/Venus stage reporter fluorescence; stronger effect = lower value; some inactives read as strong as hits; activity change (mCherry), % (no concentration beside the values);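 active means mCherry past -33% and 40 or more points under the early reporter, replicates agreeing; inconclusive means past -33% without that gap or agreement; tested in A549 cells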;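 further: scaled between vehicle wells and reference inhibitor wells; 23 nL library stock went into each well; one replicate is shown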
Vaccinia inh Venus = second read-out of Vaccinia inh, no call of its own (marks repeat the call); activity change (Venus), %; measured here: Venus reporter, other viral stage;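 negative = less Venus signal; first of two replicates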
* hit, by the source's call; ? = inconclusive; . = not tested or not shown; & = joins results of further samples.

SMILES	Vaccinia inh	Vaccinia inh Venus
C/C=C/c1ccc([C@@H]2[C@@H](CN(CC)C(C)=O)N(S(C)(=O)=O)[C@H]2CO)cc1	-2	0
CC(=O)N(C)C[C@@H]1Oc2ncc(-c3cccc(C#N)c3)cc2C(=O)N([C@@H](C)CO)C[C@@H]1C	31	8
C[C@@H]1CN([C@@H](C)CO)C(=O)c2cccc(NS(=O)(=O)c3ccccc3)c2O[C@H]1CN(C)Cc1ccc(Cl)c(Cl)c1	6	8
Cc1noc(C)c1S(=O)(=O)Nc1ccc2c(c1)C(=O)N([C@@H](C)CO)C[C@@H](C)[C@@H](CN(C)S(=O)(=O)c1ccc(Cl)cc1)O2	1	-2
CS(=O)(=O)N1[C@H](CO)[C@@H](c2ccccc2)[C@@H]1C#N	12	13
Cc1cc(C(=O)Nc2cccc3c2O[C@@H](CN(C)S(=O)(=O)c2c(C)noc2C)[C@@H](C)CN([C@H](C)CO)C3=O)n(C)n1	17	12
COc1ccccc1C#Cc1ccc([C@@H]2[C@H](CO)N3CCCCN(C(=O)C4CCC4)C[C@@H]23)cc1	?	.
C[C@H]1CN([C@@H](C)CO)C(=O)c2cccc(NC(=O)C3CC3)c2O[C@@H]1CN(C)CC1CCCCC1	-9	-11
CCNC(=O)c1cc2c(c(-c3cccc(-c4cccc(F)c4)c3)n1)[C@@H](CCO)N([S@](=O)C(C)(C)C)C2	-24	10
CCC(=O)N1CC[C@H]2[C@H](CO)Nc3ccc(C#Cc4ccccc4F)cc3[C@H]21	-4	2
O=C(C[C@H]1C=C[C@@H](NC(=O)c2ccncc2)[C@@H](CO)O1)NCc1ccncn1	6	11
O=C(C[C@H]1C[C@H]2c3cc(NC(=O)CC4CC4)ccc3O[C@H]2[C@H](CO)O1)NCc1ccccc1F	19	11
C[C@H](CO)N1C[C@H](C)[C@H](CN(C)Cc2ccc(Cl)c(Cl)c2)Oc2ccc(NS(=O)(=O)c3ccc(F)cc3)cc2C1=O	7	-5
Cc1ccc(S(=O)(=O)N(C)C[C@H]2OCCCC[C@H](C)Oc3ccc(NS(=O)(=O)c4ccc(Cl)cc4)cc3C(=O)N([C@H](C)CO)C[C@H]2C)cc1	-20	-17
CCS(=O)(=O)Nc1ccc2c(c1)C(=O)N(C)[C@@H]1CC[C@@H](CC(=O)NC3CCCCC3)O[C@H]1CO2	6	14
CO[C@H]1CC[C@@H]2CCN(C)C(=O)[C@@H](C)N(C)C(=O)c3cc(C#N)ccc3OC[C@@H]1O2	12	2
CC(=O)N(C)C[C@H]1Oc2cc(-c3cccnc3)ccc2S(=O)(=O)N([C@@H](C)CO)C[C@@H]1C	33	3
C[C@H](O)C#Cc1ccc2c(c1)O[C@@H](CN(C)C(=O)CN(C)C)[C@@H](C)CN([C@H](C)CO)S2(=O)=O	5	4
Cc1noc(C)c1NC(=O)Nc1cccc2c1O[C@H](CN(C)S(=O)(=O)c1ccc(Cl)cc1)[C@@H](C)CN([C@@H](C)CO)C2=O	4	5
CN1CCN(C(=O)C[C@H]2CC[C@H]3[C@H](COc4ccc(NC(=O)c5ccc(F)c(F)c5)cc4C(=O)N3C)O2)CC1	8	10
C[C@@H]1CN([C@@H](C)CO)C(=O)Cc2cc(NC(=O)Cc3ccccc3)ccc2O[C@H]1CN(C)C(=O)Nc1ccc(F)cc1	8	2
C[C@H]1CN([C@@H](C)CO)C(=O)Cc2cc(NC(=O)Cc3ccccc3)ccc2O[C@@H]1CN(C)C(=O)NC1CCCCC1	13	14
COCC(=O)Nc1ccc2c(c1)[C@H]1C[C@H](CC(=O)NCc3ccccc3)O[C@@H](CO)[C@H]1O2	9	3
CNC[C@H]1OCc2ccccc2-c2ccccc2C(=O)N([C@@H](C)CO)C[C@@H]1C	14	2
COCC#Cc1ccc2c(c1)O[C@@H](CN(C)C(=O)Nc1ccccc1F)[C@@H](C)CN([C@@H](C)CO)S2(=O)=O	-5	-3
CC(=O)N(C)C[C@H]1Oc2cc(-c3cccnc3)ccc2S(=O)(=O)N([C@H](C)CO)C[C@@H]1C	-4	-8
CC=Cc1ccc2n(c1=O)C[C@H]1N[C@@H]2[C@@H](C(=O)NC2CCCC2)[C@@H]1CO (mixture of isomers)	9	-3
C[C@@H]1CCCCO[C@H](CN(C)C(=O)Nc2ccc(C(F)(F)F)cc2)[C@@H](C)CN([C@H](C)CO)C(=O)c2cc(NC(=O)c3ccccc3)ccc2O1	-7	2
C[C@H](CO)N1C[C@H](C)[C@H](CN(C)Cc2ccc(Oc3ccccc3)cc2)Oc2c(NS(=O)(=O)c3cn(C)cn3)cccc2C1=O	16	3
O=C([C@@H]1[C@@H](CO)[C@@H]2Cn3c(ccc(-c4ccc(F)cc4)c3=O)[C@@H]2N1Cc1cocn1)N1CCOCC1	11	13
CC(C)NC(=O)Nc1ccc2c(c1)CC(=O)N([C@H](C)CO)C[C@H](C)[C@H](CN(C)Cc1ccc(C(=O)O)cc1)O2	39	23
COc1ccc(NC(=O)Nc2ccc3c(c2)C(=O)N([C@@H](C)CO)C[C@@H](C)[C@@H](CN(C)C(=O)Nc2ccc(OC)cc2)OCCCC[C@@H](C)O3)cc1	22	10
Cc1noc(C)c1S(=O)(=O)N(C)C[C@@H]1Oc2ccc(NC(=O)NC(C)C)cc2CC(=O)N([C@@H](C)CO)C[C@H]1C	28	14
Cc1noc(C)c1NC(=O)Nc1ccc2c(c1)CC(=O)N([C@@H](C)CO)C[C@@H](C)[C@H](CN(C)S(=O)(=O)c1cccs1)O2	6	1
O=C(C[C@@H]1CC[C@@H]2[C@H](COC[C@@H](O)CN2C(=O)c2ccc3c(c2)OCO3)O1)NCCN1CCCCC1	2	6
COc1ccc2c3c([nH]c2c1)[C@H](CO)N(C(=O)Nc1ccc(F)cc1)CC31CCN(C(=O)Cc2ccccc2)CC1	?	.
Cc1ccccc1S(=O)(=O)NCC[C@H]1CC[C@H](NC(=O)C2CCCCC2)[C@@H](CO)O1	-6	-9
C[C@H](CO)N1C[C@H](C)[C@@H](CN(C)Cc2ccc(C(=O)Nc3ccccc3N)cc2)Oc2ccc(NC(=O)Nc3ccc(C(F)(F)F)cc3)cc2C1=O	-10	-6
COCC(=O)N(C)C[C@H]1Oc2ncc(C#C[C@H](C)O)cc2C(=O)N([C@H](C)CO)C[C@@H]1C	7	8
COc1ccc2c3c(n(C)c2c1)[C@H](CO)N(Cc1ccccc1F)CC31CN(C(=O)C2CC2)C1	6	5

Overlap with the part before: 7 compounds; new compounds follow.
SMILES	Vaccinia inh	Vaccinia inh Venus
Cc1noc(C)c1NC(=O)Nc1ccc2c(c1)CC(=O)N([C@@H](C)CO)C[C@@H](C)[C@H](CN(C)S(=O)(=O)c1cccs1)O2	6	1
O=C(C[C@@H]1CC[C@@H]2[C@H](COC[C@@H](O)CN2C(=O)c2ccc3c(c2)OCO3)O1)NCCN1CCCCC1	2	6
COc1ccc2c3c([nH]c2c1)[C@H](CO)N(C(=O)Nc1ccc(F)cc1)CC31CCN(C(=O)Cc2ccccc2)CC1	?	.
Cc1ccccc1S(=O)(=O)NCC[C@H]1CC[C@H](NC(=O)C2CCCCC2)[C@@H](CO)O1	-6	-9
C[C@H](CO)N1C[C@H](C)[C@@H](CN(C)Cc2ccc(C(=O)Nc3ccccc3N)cc2)Oc2ccc(NC(=O)Nc3ccc(C(F)(F)F)cc3)cc2C1=O	-10	-6
COCC(=O)N(C)C[C@H]1Oc2ncc(C#C[C@H](C)O)cc2C(=O)N([C@H](C)CO)C[C@@H]1C	7	8
COc1ccc2c3c(n(C)c2c1)[C@H](CO)N(Cc1ccccc1F)CC31CN(C(=O)C2CC2)C1	6	5
CC(C)C(=O)Nc1ccc2c(c1)C(=O)N(C)[C@H]1CC[C@@H](CC(=O)O)O[C@H]1CO2	12	12
CN(C)CCCNC(=O)[C@@H]1[C@@H](CO)[C@@H]2Cn3c(ccc(C4=CCCC4)c3=O)[C@H]1N2Cc1cocn1	17	12
COc1ccc2c3c(n(C)c2c1)[C@@H](CO)N(Cc1nccs1)CC31CN(C(=O)CN(C)C)C1	16	3
COc1ccc2c3c([nH]c2c1)[C@@H](CO)N(C(=O)Nc1ccc(F)cc1)CC31CN(S(=O)(=O)c2ccccc2)C1	-14	-20
C[C@H](CO)N1C[C@H](C)[C@H](CN(C)C(=O)NC2CCCCC2)Oc2ncc(/C=C/c3ccccc3)cc2C1=O	-29&-17	-19&-3
CCC(=O)N1C[C@@H](C)[C@H](OC)CN(C)C(=O)c2ccc(NC(=O)Nc3ccccc3)cc2OC[C@H]1C	-14	-8
CC(C)NC(=O)[C@@]1(C)c2ccccc2C(=O)N(Cc2ccccc2)[C@H]1c1ccc(CO)cc1	9	-2
CO[C@@H]1CN(C)C(=O)c2ccc(NS(C)(=O)=O)cc2OC[C@@H](C)N(C)C[C@H]1C	6	4
O=C(C[C@@H]1CC[C@H]2[C@@H](COC[C@@H](O)CN2Cc2ccc(Oc3ccccc3)cc2)O1)N1CCN(c2ccccc2)CC1	?	.
COc1ccc(NC(=O)N(C)C[C@H]2Oc3ccc(NS(=O)(=O)c4ccc(Cl)cc4)cc3C(=O)N([C@H](C)CO)C[C@H]2C)cc1	-3	-15
COc1ccc2c3c([nH]c2c1)[C@H](CO)N(C(=O)Nc1cccc(F)c1)CC31CCN(S(=O)(=O)c2ccccc2)CC1	?	.
C[C@@H]1CN([C@@H](C)CO)C(=O)c2cc(-c3ccncc3)cnc2O[C@H]1CN(C)C(=O)Cc1ccccn1	32	14
CCC(=O)Nc1ccc2c(c1)OC[C@@H](C)N(C(=O)C1CCC1)C[C@@H](C)[C@@H](OC)CN(C)C2=O	-2	0
C[C@@H]1CN([C@@H](C)CO)C(=O)c2cc(NC(=O)c3ccncc3)ccc2O[C@@H](C)CCCCO[C@@H]1CN(C)Cc1ccc(C(F)(F)F)cc1	?	.
COc1ccccc1C#Cc1ccc2c(c1)[C@H]1[C@H](CCN1S(=O)(=O)c1cccc(C)c1)[C@H](CO)N2	-11	-10
C[C@H]1CN([C@@H](C)CO)C(=O)c2cc(NS(=O)(=O)c3ccccc3)ccc2O[C@H]1CN(C)C(=O)Nc1ccc(F)cc1	18	10
COCC(=O)N(C)C[C@@H]1Oc2cc(C3=CCCC3)ccc2S(=O)(=O)N([C@H](C)CO)C[C@H]1C	9	7
COc1ccc(NC(=O)Nc2ccc3c(c2)C(=O)N([C@@H](C)CO)C[C@H](C)[C@H](CN(C)C)OCCCC[C@H](C)O3)cc1	-1	3
CN(C)c1ccc2c(c1)[C@@H]1C[C@@H](CC(=O)NCc3ccc(-c4ccccc4)cc3)O[C@@H](CO)[C@@H]1O2	?	.
COCC(=O)Nc1ccc2c(c1)[C@@H]1C[C@@H](CC(=O)NC3CCCCC3)O[C@@H](CO)[C@@H]1O2	11	4
CS(=O)(=O)N1CCCCN2[C@H](C1)[C@@H](c1ccc(-c3cccc(C#N)c3)cc1)[C@@H]2CO	28	1
C[C@H](NC(=O)[C@@H]1[C@@H](CO)[C@@H]2Cn3c(cccc3=O)[C@H]1N2Cc1ccncc1)c1ccccc1	10	8
C[C@@H]1CCCCO[C@@H](CN(C)Cc2ccc(C(F)(F)F)cc2)[C@@H](C)CN([C@H](C)CO)C(=O)c2cc(NC(=O)CCCN(C)C)ccc2O1	3	-2
C[C@H]1CN([C@@H](C)CO)C(=O)c2cccc(NS(=O)(=O)c3ccccc3)c2O[C@H]1CN(C)Cc1ccc(Cl)c(Cl)c1	-5	0
CCCNC(=O)N1C[C@H]2[C@@H](c3ccccc31)[C@H](CO)N2Cc1cc(F)ccc1F	-3	2
C[C@@H]1CN([C@@H](C)CO)C(=O)c2cc(NC(=O)C3CC3)ccc2O[C@H]1CN(C)Cc1ccc(C(F)(F)F)cc1	-22	-12
C[C@H]1CN([C@@H](C)CO)C(=O)c2cc(C#CC3CCCCC3)cnc2O[C@@H]1CN(C)S(C)(=O)=O	11	-2
CO[C@@H]1CN(C)C(=O)c2ccc(NS(=O)(=O)c3ccccc3C)cc2OC[C@H](C)N(S(C)(=O)=O)C[C@H]1C	1	-4
CO[C@H]1CN(C)C(=O)c2cc(NC(C)=O)ccc2OC[C@H](C)N(C(=O)c2ccncc2)C[C@H]1C	0	-4
C/C=C/c1ccc([C@H]2[C@@H](CO)N3C(=O)CN(C(=O)Nc4cccc(OC)c4)C[C@H]23)cc1	?	.
C[C@@H]1CN([C@@H](C)CO)C(=O)Cc2cc(NC(=O)Nc3ccc4c(c3)OCO4)ccc2O[C@@H]1CN(C)S(C)(=O)=O	6	5
C[C@@H](NC(=O)C[C@H]1C=C[C@H](NC(=O)Nc2ccc3c(c2)OCO3)[C@H](CO)O1)c1ccccc1	5	1
CO[C@@H]1CN(C)C(=O)c2ccc(NC(=O)c3cccc(F)c3)cc2OC[C@@H](C)N(C)C[C@@H]1C	-6	-3
C[C@@H]1CN([C@@H](C)CO)C(=O)c2c(c3ccccc3n2C)-c2ccccc2CO[C@H]1CN(C)S(=O)(=O)c1ccccc1	?	.
CN(C)CC(=O)N1[C@@H](C#N)[C@H](c2ccc(C#CC3CCCC3)cc2)[C@@H]1CO	1	2
C[C@@H]1CN([C@H](C)CO)C(=O)c2cccc(NC(=O)Nc3ccc(C(F)(F)F)cc3)c2O[C@H]1CN(C)CC1CC1	-2	-6
O=C(C[C@H]1CC[C@@H]2[C@H](COC[C@@H](O)CN2Cc2ccc(Oc3ccccc3)cc2)O1)Nc1nccs1	?	.
C[C@H]1CN([C@@H](C)CO)C(=O)c2ccccc2-c2ccccc2CO[C@H]1CN(C)C(=O)[C@H](Cc1ccccc1)N(C)C	-12	-11

A portion of the library; count on the stated rates, not on these rows.
